Shh pathway inh: Hedgehog pathway signaling inhibitors, primary screen, luminescence, Shh-LIGHT2 cells, Gli-luciferase; 22,000 compounds, 2.1% hits; Shh-LIGHT2 Gli-luciferase reporter, 30 h; inhibition, % (concentration not given with the values); AID 2313, 2010;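 active means replicate mean of 65% or more; inconclusive means mean lower but half the replicates past it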;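 further: pathway switched on by Shh-conditioned medium diluted 1 in 25 in low serum; 100 nL library stock added to about 40 µL; 0% = median of neutral wells and 100% = positive control level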
YB-1 expression: inhibitors of YB-1 gene expression, primary screen, cell-based, fluorescence; U2OS, qRT-PCR YB-1 vs CDIP delta delta Cp, 16 h; stronger effect = higher value; zero = DMSO, each unit about twofold; delta delta Cp (YB-1 minus CDIP) (concentration not given with the values); 30,000 compounds, 0.37% hits;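 active means delta delta Cp rounded down to an integer at or above 3, about 3 SD of DMSO wells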;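 further: higher means less YB-1 transcript or more CDIP transcript relative to DMSO; stock transfer was 100 nL into about 100 µL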
MITF inh: inhibitors of MITF, primary screen, MITF inhibitor project, cell-based, luminescence. TRPM1 promoter luciferase, 24 h. inhibition, % (concentration not given with the values). 37,000 compounds, 0.28% hits;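 active means most replicates at 85% or more, or half of them and the mean; inconclusive means half reach 85% but not the mean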;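 further: human melanocyte line stably carrying TRPM1 promoter luciferase reporter; 0% = vehicle wells and 100% = a positive control; the first replicate is given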
PD-1 reverse act: activators reversing PD-1 mediated T-cell inhibition, primary screen, luminescence, primary human CD4 T cells, PD-L1 beads | CellTiter-Glo 96 h | activation, % (concentration not given with the values) | 29,000 tested, under 10 active | AID 2316, 2010;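 active means replicate mean of 50% or more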;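 further: 0% = median vehicle wells and 100% = positive control; 100 nL library stock added to about 50 µL; numbers are from one replicate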
* hit, by the source's call; ? = inconclusive; . = not tested or not shown. Only part of the results is shown, so the mix of outcomes need not match the whole.

Molecule	Shh pathway inh	YB-1 expression	MITF inh	PD-1 reverse act
Cc1noc(C)c1NC(=O)Nc1ccc2c(c1)C(=O)N([C@@H](C)CO)C[C@@H](C)[C@H](CN(C)C(=O)Nc1c(C)noc1C)O2	38	0.27	-4	2.5
COc1ccc(-c2nn3c(Cn4cnc5ccccc54)nnc3s2)cc1OC	.	.	-32	2.0
COc1ccc(OC)c(-n2c(-c3cc(-c4ccco4)[nH]n3)n[nH]c2=S)c1	.	.	0	-0.9
C[C@@H]1CN([C@H](C)CO)C(=O)c2cc(NC(=O)Cc3cn(C)c4ccccc34)ccc2O[C@H]1CN(C)Cc1ccc(C(=O)Nc2ccccc2N)cc1	.	0.56	7	-0.3
C[C@@H]1CN([C@H](C)CO)C(=O)c2cc(NC(=O)NC3CCCCC3)ccc2O[C@@H]1CN(C)Cc1ccc2c(c1)OCO2	-23	-0.34	-1	2.0
Cc1ccc(/C=C/C(=O)NC(=S)N2CCN(c3ccc(F)cc3)CC2)cc1	16	-0.38	-3	1.4
Cc1noc(C)c1S(=O)(=O)Nc1ccc2c(c1)C(=O)N([C@H](C)CO)C[C@@H](C)[C@@H](CN(C)Cc1ccc(-c3ccccc3)cc1)O2	23	0.19	1	.
C[C@@H]1CN([C@H](C)CO)C(=O)Cc2cc(NS(=O)(=O)c3cn(C)cn3)ccc2O[C@H]1CN(C)C(=O)NC1CCCCC1	-31	0.28	-2	-2.0
COc1ccc(NC(=O)Nc2cccc3c2O[C@H](CN(C)S(=O)(=O)c2cccs2)[C@@H](C)CN([C@@H](C)CO)C3=O)cc1	-52	0.47	-16	0.9
C[C@@H]1CCCCO[C@@H](CN(C)S(=O)(=O)c2cccs2)[C@@H](C)CN([C@H](C)CO)C(=O)c2cc(NC(=O)CCCCCC(=O)Nc3ccccc3N)ccc2O1	.	-0.17	-21	0.2
CC(C)(CO)NCC(O)COc1ccccc1Cl (stereo not drawn)	.	.	2	0.6
COc1ccc(NC(=O)Cn2cnc3sc(C)c(C)c3c2=O)cc1	.	.	0	0.2
COc1cccc(-c2nnc(SCC(=O)Nc3cccc(Cl)c3)n2C)c1	.	.	7	1.6
C[C@@H]1CN([C@@H](C)CO)C(=O)c2cc(NS(=O)(=O)c3cn(C)cn3)ccc2O[C@H]1CN(C)S(=O)(=O)c1ccc(F)cc1	.	0.13	9	0.7
Cc1noc(C)c1NC(=O)N(C)C[C@H]1Oc2ccc(NS(=O)(=O)c3cn(C)cn3)cc2CC(=O)N([C@H](C)CO)C[C@H]1C	-32	0.12	0	5.2
C[C@@H]1CN([C@H](C)CO)C(=O)Cc2cc(NC(=O)CCC(F)(F)F)ccc2O[C@H]1CN(C)C(=O)Nc1ccc(F)cc1	6	-0.094	-13	.
O=C(COc1ccc(C2CCCCC2)cc1)Nc1cccc2ncccc12	.	.	-17	-6.3
C[C@H]1CN([C@@H](C)CO)C(=O)c2cc(NC(=O)Nc3ccccc3)ccc2O[C@H]1CN(C)S(=O)(=O)c1ccc(Cl)cc1	.	-0.35	-14	-1.5
C[C@H]1CN([C@@H](C)CO)C(=O)c2cc(NS(C)(=O)=O)ccc2O[C@@H]1CN(C)Cc1ccc(C(F)(F)F)cc1	.	0.022	-5	.
COc1ccc(NC(=O)Nc2ccc3c(c2)CC(=O)N([C@@H](C)CO)C[C@@H](C)[C@@H](CN(C)Cc2ccc(C(=O)O)cc2)O3)cc1	-24	-11	10	.
O=C(c1ccccc1Oc1nc([N+](=O)[O-])nn1Cc1ccccc1F)N1CCCC1	.	.	-9	0.6
C[C@@H]1CN([C@@H](C)CO)C(=O)c2cc(NC(=O)Nc3ccc4c(c3)OCO4)ccc2O[C@H]1CN(C)S(=O)(=O)c1ccc(Cl)cc1	.	-0.14	-24	0.6
Cc1cc(C)c(C)c(OCC(=O)Nc2ccccc2C(N)=O)c1	.	.	-7	-5.4
COc1ccc(S(=O)(=O)Nc2cccc3c2O[C@@H](CN(C)Cc2ccc(Cl)c(Cl)c2)[C@@H](C)CN([C@@H](C)CO)C3=O)cc1	43	0.57	6	-1.2
C=CCn1c(=O)c2c(C)c(C)sc2n2c(Nc3ccc(C(=O)OCC)cc3)nnc12	23	-0.15	0	-0.1
O=C(CSc1nnc(-c2ccccc2)n1-c1ccc(Cl)cc1)Nc1ccc(Cl)cc1	.	.	1	-12
C[C@@H]1CN([C@@H](C)CO)C(=O)c2cccc(NC(=O)Nc3ccccc3)c2O[C@@H]1CN(C)C(=O)Nc1ccc(F)cc1	-36	0.086	-1	2.2
Cc1noc(C)c1NC(=O)Nc1cccc2c1O[C@@H](CN(C)S(=O)(=O)c1ccc(F)cc1)[C@H](C)CN([C@H](C)CO)C2=O	-38	-0.11	-5	.
COc1ccc(OC)c(NC(=O)Cc2coc3ccc(C)cc23)c1	.	.	-5	-2.2
COc1cc(CN(C)Cc2cccc3ccccc23)c([N+](=O)[O-])cc1OC	.	.	5	-2.4
CCC(=O)N1c2ccccc2-c2nnc(SC)nc2OC1c1ccccc1 (stereo not drawn)	-9	-0.11	0	-1.1
C[C@H]1CN([C@@H](C)CO)C(=O)c2cccc(NS(C)(=O)=O)c2O[C@@H]1CN(C)S(=O)(=O)c1ccc(Cl)cc1	-15	0.1	5	0.3
Cc1nnc(SCC(=O)Nc2ccc(Br)c(C)c2C)s1	.	.	-33	1.8
Cn1c(O)c(C=NC23CC4CC(CC(C4)C2)C3)c(=O)n(C)c1=O	-3	0.43	1	-0.7
C[C@H]1CN([C@@H](C)CO)C(=O)c2cc(NC(=O)Nc3ccccc3)ccc2O[C@H]1CN(C)Cc1ccc(C(=O)Nc2ccccc2N)cc1	.	0.42	8	-0.4
Cc1noc(C)c1S(=O)(=O)Nc1ccc2c(c1)C(=O)N([C@H](C)CO)C[C@H](C)[C@@H](CN(C)Cc1ccc(C(=O)Nc3ccccc3N)cc1)OCCCC[C@@H](C)O2	.	-0.22	0	-1.3

Next compounds
SMILES	Shh pathway inh	YB-1 expression	MITF inh	PD-1 reverse act
C[C@@H]1CCCCO[C@@H](CN(C)C(=O)Nc2cccc3ccccc23)[C@@H](C)CN([C@H](C)CO)C(=O)c2cc(NS(C)(=O)=O)ccc2O1	33	-0.59	-18	-1.7
COc1ccc(S(=O)(=O)N(C)C[C@H]2Oc3c(cccc3N(C)C)C(=O)N([C@@H](C)CO)C[C@@H]2C)cc1	-19	-0.16	2	.
O=C(CSc1nnc(-c2ccccc2F)n1-c1ccc(Cl)cc1)Nc1ccc(F)cc1F	.	.	11	-0.2
C[C@H]1CN([C@@H](C)CO)C(=O)c2cc(NC(=O)CCCCCC(=O)Nc3ccccc3N)ccc2O[C@@H]1CN(C)S(=O)(=O)c1cccs1	.	-0.27	-9	0.6
C[C@@H]1CN([C@H](C)CO)C(=O)c2cccc(NS(=O)(=O)c3ccc(F)cc3)c2O[C@H]1CN(C)CC1CCCCC1	?	-0.02	10	.
C[C@@H]1CN([C@@H](C)CO)C(=O)c2cccc(NC(=O)C3CCOCC3)c2O[C@H]1CN(C)S(=O)(=O)c1ccccc1	-3	0.78	-18	.
C[C@H](CO)N1C[C@H](C)[C@H](CN(C)Cc2ccc(C(F)(F)F)cc2)Oc2ccc(NC(=O)Nc3ccc4c(c3)OCO4)cc2C1=O	22	0.19	19	-1.1
C[C@@H]1CN([C@@H](C)CO)C(=O)c2cccc(NC(=O)Nc3ccccc3)c2O[C@@H]1CN(C)Cc1ccncc1	-50	-0.47	-4	1.7
COc1ccc(S(=O)(=O)Nc2cccc3c2O[C@@H](CN(C)S(=O)(=O)c2cccs2)[C@H](C)CN([C@H](C)CO)C3=O)cc1	22	0.069	-2	.
C[C@H]1CN([C@@H](C)CO)C(=O)Cc2cc(NC(=O)CCCCCC(=O)Nc3ccccc3N)ccc2O[C@H]1CN(C)C(=O)Nc1ccc2c(c1)OCO2	.	-0.036	5	-1.9
S=c1[nH]nc(CCCc2n[nH]c(=S)o2)o1	.	-0.057	11	-0.6
Cc1ccc(S(=O)(=O)N(C)C[C@@H]2Oc3ccc(NS(=O)(=O)c4cccs4)cc3CC(=O)N([C@H](C)CO)C[C@H]2C)cc1	-2	0.054	-2	.
COc1cccc(/C=C/C(=O)O)c1C(C)C	-32	0.2	-31	.
NS(=O)(=O)c1cccc2c1c([N+](=O)[O-])cc1[nH]c(=O)c(=O)[nH]c12	18	0.037	10	3.2
C[C@@H]1CN([C@@H](C)CO)C(=O)c2cccc(NC(=O)C3CC3)c2O[C@@H]1CN(C)CC1CCCCC1	19	-0.078	-1	2.7

Some of the entries so far, field by field.
Molecule: C[C@H](CO)N1C[C@H](C)[C@H](CN(C)Cc2ccc(C(F)(F)F)cc2)Oc2ccc(NC(=O)Nc3ccc4c(c3)OCO4)cc2C1=O
  Shh pathway inh: 22 | YB-1 expression: 0.19 | MITF inh: 19 | PD-1 reverse act: -1.1

Molecule: COc1cccc(/C=C/C(=O)O)c1C(C)C
  Shh pathway inh: -32 | YB-1 expression: 0.2 | MITF inh: -31 | PD-1 reverse act: .

Going on with the list.
SMILES	Shh pathway inh	YB-1 expression	MITF inh	PD-1 reverse act
O=c1[nH]c(SCc2n[nH]c(=S)n2-c2ccccc2)nc2ccccc12	.	.	-27	2.1
C[C@@H]1CN([C@@H](C)CO)C(=O)Cc2cc(NC(=O)Nc3ccc(C(F)(F)F)cc3)ccc2O[C@@H]1CN(C)S(=O)(=O)c1ccc(F)cc1	12	0.09	17	-0.6
C[C@@H]1CN([C@H](C)CO)C(=O)c2cc(NS(=O)(=O)c3ccc(F)cc3)ccc2O[C@H]1CN(C)C(=O)NC1CCCCC1	.	0.07	5	0.3
Cc1ccc(C(=O)CSc2nc(C)nc3sc4c(c23)CCCC4)cc1	.	.	-45	-0.1
COc1ccccc1NC(=O)c1ccc(OC(C)C(=O)Nc2cc(Cl)ccc2C)cc1 (stereo not drawn)	.	.	-10	-1.5
C[C@@H]1CN([C@H](C)CO)C(=O)c2cc(NC(=O)Nc3ccc4c(c3)OCO4)ccc2O[C@H]1CN(C)S(C)(=O)=O	9	-0.21	9	1.7
COc1cc(NC(=O)COc2cc(C)c(Br)c(C)c2)c(OC)cc1Cl	.	.	0	0.9
C[C@@H]1CN([C@H](C)CO)C(=O)Cc2cc(NS(=O)(=O)c3ccc(Cl)cc3)ccc2O[C@H]1CN(C)S(=O)(=O)c1ccc(F)cc1	5	0.071	12	2.0
CCn1c(SCC(=O)Nc2sc3c(c2C#N)CCC(C(C)(C)C)C3)nnc1-c1ccco1 (stereo not drawn)	.	.	-6	-1.1
COc1ccc(NC(=O)N(C)C[C@@H]2Oc3c(NS(C)(=O)=O)cccc3C(=O)N([C@H](C)CO)C[C@@H]2C)cc1	-13	-0.13	-19	2.2
C=C[C@H]1C(=C)CCC2[C@H]1CC[C@@]1(O)[C@@](C)(C(=O)O)[C@H](O)CC[C@]21C (stereo partly drawn)	-27	-0.3	-28	0.7
C[C@@H]1CCCCO[C@H](CN(C)Cc2ccc(Cl)c(Cl)c2)[C@@H](C)CN([C@H](C)CO)C(=O)c2cc(NC(=O)c3ccccc3)ccc2O1	.	-0.49	35	1.6
C[C@H]1CN([C@@H](C)CO)C(=O)c2cc(NS(C)(=O)=O)ccc2O[C@H]1CN(C)C(=O)Nc1ccc(C(F)(F)F)cc1	17	-0.095	6	0.2
C[C@@H]1CN([C@@H](C)CO)C(=O)c2cc(NS(C)(=O)=O)ccc2O[C@@H]1CN(C)Cc1ccc(C(F)(F)F)cc1	-5	0.32	-5	1.3
O=C1/C(=C/c2ccc(O)cc2)SC(=S)N1CCc1ccccc1	.	-1.1	2	-2.0
COc1ccc(NC(=O)N(C)C[C@@H]2Oc3ccc(NC(=O)C4CCCCC4)cc3C(=O)N([C@H](C)CO)C[C@H]2C)cc1	.	-0.29	-1	-0.6
CNC[C@H]1Oc2ccc(NS(=O)(=O)c3ccc(F)cc3)cc2C(=O)N([C@@H](C)CO)C[C@@H]1C	.	-0.059	-16	2.6
C[C@H](CO)N1C[C@H](C)[C@@H](CN(C)S(C)(=O)=O)Oc2ccc(NC(=O)Nc3cccc4ccccc34)cc2C1=O	1	0.13	6	.
C[C@H]1CN([C@@H](C)CO)C(=O)c2cccc(NC(=O)C3CC3)c2O[C@@H]1CN(C)C(=O)Nc1ccc(C(F)(F)F)cc1	-27	-0.15	-10	-0.9
O=C(CSc1nccc(=O)[nH]1)N1CCCc2ccccc21	.	.	-3	1.8

Screening results: PubChem BioAssay, Broad Institute
